2A StopGo – FMDV 2A StopGo reporter, luciferase signal | human cells with a luciferase reporter of 2A StopGo recoding; control for the full effect not named in the record | Potency, µM (series often up to 57.9 µM), inactives show at the highest dose signal change, negative = less light | actives 1.2% (n = 410,000) | AID 1159524; active = well fitted falling curve with a large enough effect; inconclusive = small, poorly fitted or top-dose-only effect; inactive = no such curve, though single readings can be large or run the other way; tested in HEK293T cells; also: nearly all actives have a fitted effect of over 45% in size; luciferase light after 4 h
Cruzain noTriton – cruzain (T. cruzi) inhibition without detergent | purified cruzain, Z-FR-AMC fluorescence, no detergent | Potency, µM, without a hit: max response, negative = inhibition, actives largely listed as inhibitors | actives 2.3% (n = 200,000);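 also: plate controls were enzyme without inhibitor for no effect and buffer without enzyme for full effect; nearly all actives have a fitted effect of over 40% in size; top concentration of the series not given in the record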
Target sequence (P25779 123-467 limits assumed): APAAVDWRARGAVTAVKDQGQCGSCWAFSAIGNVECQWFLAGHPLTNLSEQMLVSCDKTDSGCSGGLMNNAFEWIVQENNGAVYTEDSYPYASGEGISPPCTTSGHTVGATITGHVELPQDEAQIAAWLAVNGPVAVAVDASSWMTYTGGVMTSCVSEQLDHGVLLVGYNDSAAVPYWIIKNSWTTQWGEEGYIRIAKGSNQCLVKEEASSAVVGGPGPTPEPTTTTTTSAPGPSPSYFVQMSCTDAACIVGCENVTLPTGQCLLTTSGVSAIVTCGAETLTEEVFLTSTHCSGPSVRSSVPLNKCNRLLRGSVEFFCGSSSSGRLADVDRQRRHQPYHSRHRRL
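Purified cruzain at 1.5 nM, pre-incubated 15 min with compound at room temperature in 100 mM sodium acetate pH 5.5, 5 mM DTT, 0.00005% Triton X-100. Reaction started with 2 uM Z-FR-AMC; AMC fluorescence increase over 60 s gives rate.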
Cruzain inh Det – inhibitors of Trypanosoma cruzi cruzain with detergent; P25779; purified cruzain, Z-FR-AMC fluorescence, 0.01% Triton; Potency, µM, without a hit: max response, negative = inhibition, usual class: inhibitors; actives 0.43% (n = 200,000);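 also: plate controls were neutral wells for no effect and buffer without enzyme for full effect; nearly all actives have a fitted effect of over 40% in size; top concentration of the series not given in the record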
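In this qHTS format, compounds are incubated with 1.5 nM cruzain for 15 min at room temperature before 2 uM Z-FR-AMC is added. Release of AMC is followed at 360/450 nm, and progress is taken as the 60 s fluorescence difference.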
Numbers without * were called inactive; ? = inconclusive; & = joins results of further samples; [ ] = remark or other dose. Unless noted, calls follow the shape of the dose curve; as a rule, active = well fitted curve in the direction sought with a large enough effect; inconclusive = small, poorly fitted or top-dose-only effect, or another doubt; inactive = no such curve, though single readings can be large; an effect the other way counts as inactive or inconclusive. Unless noted, % is scaled to controls: 0 for no effect and ±100 for the full control effect; potency is read from the fitted curve at half-maximal effect. A portion of the library; count on the stated rates, not on these rows.

canonical_smiles	2A StopGo	Cruzain noTriton	Cruzain inh Det
COCCn1c(=O)cnc2cnc(N(C)C)nc21	-11%	-12%	-2.2%
CC(C)CN1CC[C@@]2(CCCN(C(=O)c3cnccn3)C2)C1	1%	-10%	0.7%
CCN(CC)CCCCC1CCN(CC(=O)N2c3ccccc3C(=O)Nc3cccnc32)CC1	-20%	5%	1.4%
N#Cc1cccc(-c2nccc(NCc3cccs3)n2)c1	20%	14%	-12%
C=CCc1ccc(O)c(OC)c1	1%	-5%&-9%&0%	0.7%&-2.2%&5.3%
COCC(=O)N1CCC2(CCCN(Cc3ccncc3)C2)CC1	-14%	-7%	0.1%
Cc1c(C(=O)c2ccc3ccccc3c2)c2cccc3c2n1[C@H](CN1CCOCC1)CO3	-15%	?	-1.5%
COc1ccc(-c2c(O)c3c(OC)c4c(cc3oc2=O)OC(C)(C)C=C4)cc1	12%	-6%	-1.7%

Of the compounds above, 4 have four or more nitrogen atoms:
canonical_smiles	2A StopGo	Cruzain noTriton	Cruzain inh Det
COCCn1c(=O)cnc2cnc(N(C)C)nc21	-11%	-12%	-2.2%
CC(C)CN1CC[C@@]2(CCCN(C(=O)c3cnccn3)C2)C1	1%	-10%	0.7%
CCN(CC)CCCCC1CCN(CC(=O)N2c3ccccc3C(=O)Nc3cccnc32)CC1	-20%	5%	1.4%
N#Cc1cccc(-c2nccc(NCc3cccs3)n2)c1	20%	14%	-12%

New compounds follow
canonical_smiles	2A StopGo	Cruzain noTriton	Cruzain inh Det
COc1cc2c(cc1OC)C(c1c[nH]c3ccccc13)NCC2 (stereo not drawn)	-25%	3%	-2.5%
COc1ccc(-c2coc3cc(O)ccc3c2=O)c(O)c1O	31%[activator]	-19%	-15%
Cc1ccccc1-c1nc(Nc2ccncc2)c2ccccc2n1	?	16%	-0.1%
COc1ccc(-c2nc3cnc(Nc4ccccc4)nc3n(C[C@H]3CCCO3)c2=O)cc1	-16%	2%	7.3%
COc1ccc2[nH]cc(CCNc3cc(-c4ccccc4Cl)ncn3)c2c1	-26%	-30%	?
FC(F)(F)c1ccccc1-c1cc(NCc2cccnc2)ncn1	-1%	19%	2.3%
COc1ncc2nc(CCc3ccccc3)c(=O)n(Cc3ccc(F)cc3)c2n1	10%	-3%	-1.8%
COc1ccccc1-c1nccc(NCc2ccccc2)n1	-18%	7%	-2.1%
COCCn1c(=O)c(-c2cccc(C#N)c2)nc2cnc(N3CCN(C)CC3)nc21	-16%	?	?
O=S(=O)(c1ccccc1)N1CCC2(CCCN(c3cccc(-c4ccccc4)c3)C2)CC1	-15%	?	0.4%
COC(=O)N1CCC2(CCCN(c3ccccn3)C2)CC1	-22%	0%	-1.5%
CC1/C=C/C=C/CC/C=C/C=C/C=C/C=C/C(OC2OC(C)C(O)C(N)C2O)CC2O[C@](O)(CC(O)C(O)CCC(O)CC(O)CC(O)CC(=O)OC(C)C(C)C1O)CC(O)C2C(=O)O (stereo partly drawn)	-1%	-7%	5.3%
COc1ccc2[nH]cc(CCNc3ccnc(-c4ccccc4C)n3)c2c1	-12%	-15%	-0.8%
CC1CCC2C(C)(C)C3CC12CC[C@]3(C)O (stereo partly drawn)	-8%	4%	2.3%
CCCCC/C=C\C[C@@H](/C=C/C=C\C/C=C\CCCC(=O)O)OO	-14%[0.463 µM]	-6%	2.2%
O=c1[nH]ccc2c(S(=O)(=O)N3CCCNCC3)cccc12	-22%	?	-1.3%
CC(=O)N1CCC2(CC1)CCN(c1ncccn1)CC2	-8%	-5%	-3.1%
COC(=O)/C=C\c1cc(O)ccc1O	9%	-2%	-3.5%
COc1ccc(-n2c(=O)c(-c3ccccc3)nc3cnc(N4CCNCC4)nc32)cc1	-2%	-10%	-0.5%
FC(F)(F)c1ccccc1-c1nc(NCCN2CCOCC2)c2ccccc2n1	2%	2%	0.0%
CC(=O)N[C@H](CS)C(=O)O	-1%	7%	2.5%
O=c1c(-c2ccccc2)nc2cnc(Oc3cccc(Cl)c3)nc2n1C[C@H]1CCCO1	-14%	-4%	-2.4%
O=C(c1ccncc1)N1CCC2(CCCN(c3ncccn3)C2)CC1	1%	-1%	-0.7%
O=C(c1ccncc1)N1CCC2(CC1)CCN(c1cccc(-c3ccccc3)c1)CC2	?	?	-4.2%
Cc1noc(C)c1-c1ccc2ncnc(N3CCN(C)CC3)c2c1	-4%	-13%	1.1%
Cn1cccc1C(=O)N1CCC2(CCN(Cc3ccc(C#N)cc3)CC2)CC1	-23%	1%	-3.8%
Nc1ncnc2c1[nH]c(=O)n2C1OC(CO)C(O)C1O (stereo not drawn)	-3%	-13%	4.3%
COc1cccc(Cn2c(=O)c(-c3cc(F)cc(F)c3)nc3cncnc32)c1	-20%	-6%	-0.1%
CC(C)=CC1C(C(=O)OCc2cccc(Oc3ccccc3)c2)C1(C)C (stereo not drawn)	-15%	-17%	9.4%
COC(=O)N1CCC2(CCCN(c3ncccn3)C2)CC1	0%	-6%	-0.8%
c1cncc(CNc2ncncc2-c2ccoc2)c1	-20%	8%	4.0%
CC(C)CN1CCC2(CC1)CCN(C(=O)c1cccn1C)CC2	-6%	-7%	5.0%

(list continues)
molecule	2A StopGo	Cruzain noTriton	Cruzain inh Det
CCNc1ncc2nc(-c3cc(F)cc(F)c3)c(=O)n(Cc3ccc(F)cc3)c2n1	-3%	-8%	7.0%
CCCCCCCCCCCCCCC(F)C(=O)O (stereo not drawn)	-12%[6.7 µM]	9%	-5.6%
C=CCN1CCc2c(cc(O)c(O)c2Cl)C(c2cccc(C)c2)C1 (stereo not drawn)	-22%	5%	-6.3%
O=C(O)COc1cc(Cl)c(Cl)cc1Cl	62%[activator]	-3%	4.6%
COc1ccc2[nH]c3c(c2c1)CCNC3=O	8%&12%	-3%	-3.0%
CC(N)[C@@H](O)c1ccccc1 (stereo partly drawn)	-7%	-1%	1.2%
CNc1ncncc1-c1ccccc1C	-2%	3%	1.5%
COc1ccc(-c2nc3cnc(OC)nc3n(C3CC3)c2=O)cc1	-4%	7%	3.7%
CN(C)c1ncc2nc(-c3ccc(F)cc3)c(=O)n(C3CC3)c2n1	8%	2%	3.7%
COc1ncc2nc(-c3ccccc3)c(=O)n(C[C@H]3CCCO3)c2n1	-10%	-6%	-11%
CCCCCC(C)N (stereo not drawn)	6%	-4%	-1.5%
Cc1nc2cnc(Oc3cccc(Cl)c3)nc2n(Cc2ccc(F)cc2)c1=O	-28%	8%	-2.7%
COc1ccccc1CN1CC2(CCN(C(=O)c3cccc(F)c3)CC2)C1	-4%	-4%	3.3%
COCCn1c(=O)c(-c2cccc(C#N)c2)nc2cnc(N(C)C)nc21	-10%	2%	-2.8%
Cn1c(=O)c(-c2ccc(F)cc2)nc2cnc(Nc3ccccc3)nc21	-2%	-13%	3.3%
NC1(C(=O)O)C[C@H](C(=O)O)[C@H](C(=O)O)C1 (stereo partly drawn)	11%&11%&-6%	10%	-5.4%
COc1ccccc1-c1cncnc1NCCN1CCOCC1	2%	-7%	-4.1%
Cn1cc(-c2nc3cnc(Oc4ccccc4)nc3n(C3CC3)c2=O)c2ccccc21	-8%	-6%	-0.8%
O=c1c(-c2cccs2)nc2cnc(N3CCOCC3)nc2n1CCc1ccccc1	-8%	-5%	2.2%
COc1ccccc1CNc1ccnc(-c2c(C)noc2C)n1	-20%	6%	3.8%
CC1(C)CO[C@H](CC(=O)O)CN1	?	10%	-0.8%
CN(C)C(=O)c1ccc(-c2nc(Nc3ccc(F)cc3)c3ccccc3n2)cc1	42%[activator]	11%	-3.3%
Cc1cccc(CNc2ncnc3ccc(-c4ccccc4CN(C)C)cc23)c1	-19%	2%	3.7%
CN(C)c1nc(-c2cccnc2)nc2ccccc12	-6%	-1%	0.9%

Arranged by molar mass (rising): part of the list above.
molecule	2A StopGo	Cruzain noTriton	Cruzain inh Det
COc1cc2c(cc1OC)C(c1c[nH]c3ccccc13)NCC2 (stereo not drawn)	-25%	3%	-2.5%
CC(C)CN1CCC2(CC1)CCN(C(=O)c1cccn1C)CC2	-6%	-7%	5.0%
Cn1cc(-c2nc3cnc(Oc4ccccc4)nc3n(C3CC3)c2=O)c2ccccc21	-8%	-6%	-0.8%

Additional records follow.
molecule	2A StopGo	Cruzain noTriton	Cruzain inh Det
O=c1[nH]c(-c2ccccc2O)nc2ccccc12	30%[activator]	?	1.8%
O=C(c1cccc(F)c1)N1CCC[C@@]2(CCN(C(c3ccccc3)c3ccccc3)C2)C1	-2%	-12%	0.0%
CC(C)CCCC(C)C1CCC2C3CC(O)[C@@]4(O)CC(O)CC[C@@]4(C)C3CC[C@@]12C (stereo partly drawn)	8%	4%	-2.8%
Cc1cc(O)c2c(c1O)C(=O)c1c(O)cc(C)c(O)c1C2=O	-15%	0%	1.8%
CC(=O)Oc1cc(-c2coc3cc(OC(C)=O)c(OC(C)=O)c(OC(C)=O)c3c2=O)cc(OC(C)=O)c1OC(C)=O	7%	-8%	-8.3%
COc1ccccc1-c1nc(Nc2ccncc2)c2ccccc2n1	-17%	2%	-2.5%
CCOC(=O)c1ncc2[nH]c3cccc(OC(C)C)c3c2c1C	?	?	0.4%
COc1ccc(Oc2ncc3nc(C)c(=O)n(Cc4cccs4)c3n2)cc1	?	13%	-5.8%
COc1ccc(-c2nc3cnc(Oc4cccc(Cl)c4)nc3n(C3CC3)c2=O)cc1	-2%	28%	0.9%
Cc1noc(C)c1C(=O)N1CCC[C@@]2(CCN(c3ccccc3)C2)C1	-9%	?	-0.9%
CC(=O)NCCNc1ncnc2ccc(-c3ccccc3C)cc12	0%	3%	6.3%
CC(C)[C@@H]1CN[C@H](C(=O)O)[C@@H]1CC(=O)O	0%	24%	-5.4%
O=C(CCCN1CCC2(CC1)C(=O)N(Cc1cccc(F)c1)CN2c1ccccc1)c1ccc(F)cc1	?	3%	-2.8%
COc1cccc(Nc2ncc3nc(-c4ccccc4)c(=O)n(C4CC4)c3n2)c1	-6%	-14%	-3.7%
O=c1c(-c2cc(F)cc(F)c2)nc2cnc(N3CCOCC3)nc2n1Cc1ccc(F)cc1	-10%	-5%	3.0%
CCCCCCCCCCCC(=O)O[C@H](CC(=O)O)C[N+](C)(C)C	-2%	?	5.7%
COCC(=O)N1CCC2(CC1)CN(c1ccccn1)C2	-3%	-14%	-12%
C=C1C([C@@]2(C)C(OC(C)=O)CC(=O)O[C@@](C)(COC(C)=O)C2CC(=O)OC)C(OC=O)C(OC(=O)C(OC(C)=O)C(C)CC)[C@]2(C)C(c3ccoc3)CC(=O)C12O (stereo partly drawn)	7%	?	-0.9%
O=C(Nc1cccc(F)c1)N1CCCC2(CCN(C(=O)c3cc(C(F)(F)F)cc(C(F)(F)F)c3)CC2)C1	-5%	?	-11%
c1ccc(Nc2ncnc3ccc(-c4ccc5c(c4)OCO5)cc23)cc1	-4%	-20%	-2.0%
COc1cc2c(cc1OC)[C@@H]1C(=O)c3ccc(O)c(CC=C(C)C)c3OC1CO2 (stereo partly drawn)	-14%	-3%	-1.2%
COc1ccccc1CN1CCCC2(CCN(C(=O)c3cc(C(F)(F)F)cc(C(F)(F)F)c3)CC2)C1	-8%	-6%	0.2%
O=S(=O)(c1ccccc1)N1CCC[C@@]2(CCN(c3ccccc3)C2)C1	-25%	16µM*	-5.6%
OCc1ccccc1O[C@H]1OC(CO)C(O)C(O)C1O (stereo partly drawn)	-4%	9%	-3.8%
COP(N)(=O)SC (stereo not drawn)	-5%	1%	7.0%
COc1cc2c(cc1OC)C(/C=C/c1ccc(OC)c(OC)c1OC)=NCC2	?	-4%	0.2%
C[C@@H]1OC(OC2C(OC3CC[C@@]4(C)C5CC=C6C7CC(C)(C)CC[C@@]7(C(=O)O)CCC6(C)C5(C)CCC4[C@]3(C)CO)OCC(O)C2O)C(O)C(O)C1O (stereo partly drawn)	?	?	-4.7%
COC(=O)N1CCC2(CC1)CN(c1cccc(-c3ccccc3)c1)C2	6%	?	0.2%
O=c1c(-c2ccccc2)nc2cnc(N3CCOCC3)nc2n1Cc1cccs1	-18%	-4%	4.3%
COCC(=O)N1CCC2(CCCN(Cc3ccc(C#N)cc3)C2)CC1	2%	-10%	1.3%
Cc1ccccc1-c1nc(N2CCOCC2)c2ccccc2n1	-9%	-4%	-8.9%
